Source: PubChem BioAssay (several laboratories)
Arbovirus anti – antivirals against arbovirus infection, primary screen, cell-based, full library, 10K replicate subset; arbovirus infection cell-based antiviral screen; inhibition, % at 10 µM; 200,000 tested, 0.37% active;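 active = inhibition from about 30%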;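 note: bluetongue infection of BSR cells; cell survival read as ATP light after 72 h; 0% = infected wells without compound and 100% = uninfected wells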
Mtb growth – M. tuberculosis H37Rv growth inhibitors, H37Rv strain (AID 1626); 220,000 tested, 0.95% active; M. tuberculosis H37Rv growth inhibition; higher % means a stronger effect; inhibition, % at 10 µM, or IC50 in µM where a hit was titrated;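 active = confirmed in a dose series; inconclusive = inhibition above 80% but not taken into the dose series; inactive = below 80% or under 30% at every dose of the series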;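 note: bacteria incubated seven days before Alamar blue readout; 0% = bacteria only wells and 100% = bacteria with antibiotic wells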
YopH inh – YopH tyrosine phosphatase inhibitors, primary screen, biochemical, fluorescence Ex485/Em525; inhibition, %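 (about 10 µM by stock and volumes)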; 140,000 tested, 0.16% active;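 active = inhibition of 50% or more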;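 note: controls were vehicle for no effect and minimum signal wells for full effect; inactives centre near -20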
Mtb betalactam – beta-lactam sensitization of Mtb H37Rv, H37Rv | 330,000 tested, 0.27% active | AID 434955, 2010 | inhibition, % at 25 µM | M. tuberculosis H37Rv growth with meropenem, percent inhibition; hits of this screen are not shown here;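 active = about 74% or more and at least 40 points above the plate without the antibiotic, then above 30% in a dose series; inconclusive = first-round hits that could not be retested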;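 note: growth measured after seven days incubation then overnight dye step; 0% = bacteria only wells and 100% = bacteria with antibiotic; twin plates without the antibiotic show which effects depend on it; some results filed as inactive read as strong as hits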
RecA intein inh – Mtb RecA intein splicing inhibitors, primary screen, biochemical, fluorescence, HTS; 290,000 tested, 0.75% active; cell-free RecA intein splicing; inhibition, %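 (about 9 µM by stock and volumes)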; Protein RecA (Mycobacterium tuberculosis (strain ATCC 25618 / H37Rv)), P9WHJ3; in the data active = inhibition above about 30%; inconclusive = no clear call, values can overlap the other calls;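 note: 0% = vehicle wells and 100% = reference inhibitor control wells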
Target sequence (P9WHJ3 whole entry, looked up): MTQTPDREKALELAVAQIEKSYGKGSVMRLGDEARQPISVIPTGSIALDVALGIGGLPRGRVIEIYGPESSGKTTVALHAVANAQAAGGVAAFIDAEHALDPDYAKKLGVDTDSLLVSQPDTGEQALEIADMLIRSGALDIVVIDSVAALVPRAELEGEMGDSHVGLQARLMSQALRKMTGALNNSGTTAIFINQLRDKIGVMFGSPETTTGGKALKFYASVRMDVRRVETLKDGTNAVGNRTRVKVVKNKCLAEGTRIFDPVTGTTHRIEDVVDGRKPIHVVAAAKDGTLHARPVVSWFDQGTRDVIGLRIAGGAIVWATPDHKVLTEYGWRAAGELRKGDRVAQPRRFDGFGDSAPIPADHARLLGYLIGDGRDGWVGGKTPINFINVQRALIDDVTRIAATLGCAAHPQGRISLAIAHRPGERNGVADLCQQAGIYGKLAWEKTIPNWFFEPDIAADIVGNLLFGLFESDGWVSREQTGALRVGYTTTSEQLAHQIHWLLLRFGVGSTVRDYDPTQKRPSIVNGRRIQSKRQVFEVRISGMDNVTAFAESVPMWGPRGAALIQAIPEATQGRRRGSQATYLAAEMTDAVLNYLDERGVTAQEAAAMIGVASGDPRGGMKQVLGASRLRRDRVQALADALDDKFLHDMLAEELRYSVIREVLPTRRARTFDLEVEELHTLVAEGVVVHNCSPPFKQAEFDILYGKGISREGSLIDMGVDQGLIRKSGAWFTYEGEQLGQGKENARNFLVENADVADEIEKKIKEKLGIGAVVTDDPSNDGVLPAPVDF
Arbovirus anti repeat – second read-out of Arbovirus anti, no call of its own (marks repeat the call); inhibition, %; measured here: 10K subset replicate screen; many hits read low in the repeat;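 first of two repeat runs on a subset; 0% = infected and 100% = uninfected wells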
The depositor's hits bear a star; i = inactive; ? = inconclusive; . = no result given.

Preview, three compounds:
SMILES	Arbovirus anti	Mtb growth	YopH inh	Mtb betalactam	RecA intein inh	others
CSc1nsc(NC(=O)OCc2ccc(Cl)cc2)n1	.	.	.	-6	-0.9
Cc1noc(C)c1CSc1ccccc1C(=O)O	.	.	.	-3	-0.3
COc1cc(NC(=O)CN2CCC(C(N)=O)(N3CCCCC3)CC2)c(OC)cc1Cl	-4	-4%	.	1	-2.3

All compounds of this part, repeating the preview:
SMILES	Arbovirus anti	Mtb growth	YopH inh	Mtb betalactam	RecA intein inh	others
CSc1nsc(NC(=O)OCc2ccc(Cl)cc2)n1	.	.	.	-6	-0.9
Cc1noc(C)c1CSc1ccccc1C(=O)O	.	.	.	-3	-0.3
COc1cc(NC(=O)CN2CCC(C(N)=O)(N3CCCCC3)CC2)c(OC)cc1Cl	-4	-4%	.	1	-2.3
O=c1cc(-c2ccccc2)oc2cc(OCc3ccccc3)cc(O)c12	-5	-6%	.	-1	0.8
COc1ccc(CNC(=O)CCCn2nc(C)c3c(C)n(-c4ccccc4)nc3c2=O)cc1	.	.	.	-4	-0.3
CSc1nc2ncc(C#N)cn2n1	4	4%	.	5	-4.7
CCOC(=O)NC(=O)/C(C#N)=N\Nc1ccc(Cl)cc1	17	14%	-40	-6	-9.6
NC(=S)Nc1cccc(F)c1	.	-7%	.	-5	-1.4
C#CC1CN(Cc2ccccc2)CC(C#C)N1C (centres undefined)	11	-10%	-41	-5	-5.3
CC(C(=O)N1CCN(Cc2ccc3c(c2)OCO3)CC1)c1ccc([N+](=O)[O-])cc1 (centres undefined)	-3	5%	.	-2	-1.0
CC(NC(=O)CCc1nnc(C2(c3ccc(Cl)cc3)CCC2)o1)C1CC1 (centres undefined)	0	1%	.	1	0.2
Fc1cccc(F)c1/C=N/Nc1ccccn1	-3	-2%	.	12	.
COc1ccc(N(CC(=O)NCCSCc2ccco2)S(=O)(=O)c2ccccc2)cc1Cl	.	.	.	-11	1.9
CCOC(=O)c1cc(C(=O)Nc2cccc(C)c2)nn1C	-15	-3%	12	-3	-0.6
COc1ccc(C(=O)Nc2cc(C(=O)O)cc(C(=O)O)c2)cc1Cl	-1	-7%	.	0	-1.7
CC(C)C1C(C#N)=C(N)SC(N)=C1C#N	2	-6%	2	4	-1.7
CCOC(=O)Cn1c(=NC(=O)c2nc3ccccc3s2)sc2cc(S(N)(=O)=O)ccc21	1	2%	-9	6	-1.1
O=C(NCC(=O)N1CC=C(c2ccccc2)CC1)c1ccccc1Br	.	.	.	-9	2.2
Cc1ccc(-c2nnc(SCC(=O)N3c4ccccc4NC(=O)C3(C)C)n2N)cc1	11	-8%	-22	0	1.7
O=C(Nc1ccc(Cc2ccncc2)cc1)c1ccc([N+](=O)[O-])o1	.	.	.	100	-4.6
CN(C)S(=O)(=O)c1cccc(NC(=O)COC(=O)/C=C/c2cccs2)c1	18	-4%	.	-2	-2.0
CCCCNC(=O)c1nn(-c2ccccc2OC)c(=O)c2ccccc12	5	-1%	-35	1	-0.6
CCC(=O)Nc1nc2ccc([N+](=O)[O-])cc2s1	.	3%	.	-13	-1.6
NC(=O)c1oc2ccccc2c1NC(=O)CCc1ccccc1	-8	7%	3	-5	-0.2	Arbovirus anti repeat=-1
Nc1ccc(-n2nncc2-c2ccccc2)cc1	0	-1%	-23	-20	0.6
Cc1ccccc1Nc1nc(N)nc(CSc2ccccc2)n1	-2	8%	-29	7	-0.9
COC(=O)c1c(-c2ccc(C)cc2)csc1NC(=S)NC(=O)c1ccc(F)cc1	-5	5%	-22	5	-0.3
CCN(c1ccc(NC(=O)COC(=O)c2ccc3ccccc3n2)cc1)C(C)C	-4	7%	-16	18	-1.6
CCCCn1c(SCC(=O)Nc2cc(C)on2)nnc1-c1cccs1	.	2%	.	-8	0.6
CCn1c(SCC(=O)N2CCc3ccccc32)nnc1-c1ccco1	-4	14%	-49	-8	-1.1
O=C(Oc1ccc(N2C(=O)CCC2=O)cc1)c1ccco1	1	2%	18	-9	31*
CCN(CC)c1ccc(/C=N/N2CCOCC2)cc1	6	3%	-15	0	-0.5
Cc1ccc(SCCC(=O)N2CCC(C)CC2)cc1	-2	-12%	-19	4	0.4
Cn1c(Cc2ccccc2)nnc1SCC(=O)NCCc1ccccc1	1	1%	.	7	-1.6
CC1CC(C)CN(C(=O)c2ccc(NS(=O)(=O)c3ccc4[nH]c(=O)[nH]c4c3)cc2)C1 (centres undefined)	.	.	.	15	1.7
Clc1ccc(-c2cccs2)nn1	0	-1%	.	-6	-0.3
CCN(CC)CCCNC(=O)CC1Sc2ccccc2NC1=O (centres undefined)	5	-10%	-35	-3	1.9
COc1ccc(Br)cc1CNCCSc1nnnn1C	6	-7%	-42	-7	-2.9
C=CCc1c(N(CC)CC)nc(C)[nH]c1=O	.	5%	.	1	0.7
O=C(CS(=O)CC(=O)N(CC(=O)NC1CCCC1)c1ccc2c(c1)OCCO2)Nc1ccc(F)cc1 (centres undefined)	-3	-11%	-19	-8	0.8
COc1ccc(NC(C#N)c2ccccc2OCc2ccccc2)cc1 (centres undefined)	-6	70µM*	-36	93	2.7
O=C(c1cccc(S(=O)(=O)N2CCCCCC2)c1)N1CCN(c2ccccc2F)CC1	.	.	.	4	3.1
Cc1cc(NC(=O)CS(=O)(=O)c2cn(Cc3ccccc3Cl)c3ccccc23)no1	15	8%	-5	69	5.3	Arbovirus anti repeat=9
N=c1c2c(n(Cc3ccccc3)c3c1CCC3)CCC2	3	3%	-38	-13	0.3
Nc1nonc1-n1nnc(C(=O)N/N=C/c2cccnc2)c1CSc1ccc(Cl)cc1	.	.	.	3	-0.9
CCc1cc(C(=O)N/N=C/c2ccc(O)cc2)c2ccccc2n1	.	.	.	-3	0.3
C#CCN1C(=O)C(O)(CC(=O)c2cc(OC)ccc2OC)c2ccccc21 (centres undefined)	-16	-4%	-25	4	2.4
Cc1ccc(-n2nnnc2-c2cnc3cc4c(cc3c2C)OCO4)cc1	3	-9%	-5	26	0.9
CCOC(=O)c1c(CN(C)C)oc2cc(CN(C)C)c(O)c(CSc3ccccc3)c12	-6	-9%	-4	-11	4.4
CC(C)(C)N/N=C1\CC(c2ccccc2)Oc2ccccc21 (centres undefined)	6	-3%	-3	5	16
CC(=O)NCCc1ccc(S(=O)(=O)NCc2ccc3c(c2)OCO3)cc1	3	-1%	13	11	-2.8	Arbovirus anti repeat=9
CC(=O)c1cccc(CN2CCC(n3nccc3NC(=O)CCCc3ccccc3)CC2)c1	.	.	.	?	-0.2
O=C(O)CN1C(=O)/C(=C\c2cccc(OCc3ccccc3F)c2)SC1=S	.	.	.	-4	12
Cc1cc(NC(=O)C2CCN(S(=O)(=O)c3cccs3)CC2)no1	5	-6%	0	-2	-0.1
CCCc1c(C(=O)Nc2ccc(F)cc2)cnn1-c1ccccc1	.	.	.	2	-1.2
COc1ccc(F)cc1S(=O)(=O)NC1CC(C)(C)NC(C)(C)C1	-2	4%	-27	-4	-1.3
CC(C)(C)OC(=O)N1CCC(C(=O)N[C@@H](Cc2ccccc2)C(=O)O)CC1	-4	2%	-5	-5	3.0
CCC1Oc2ccccc2N(CC(=O)Nc2ccccc2OC)C1=O (centres undefined)	-2	-2%	-16	-12	0.1
CCCC(=O)Nc1c2c(nn1-c1cccc(Cl)c1)CS(=O)(=O)C2	.	.	.	0	3.2
Cc1cc(C(=O)NCCc2ccc(S(N)(=O)=O)cc2)no1	0	1%	.	-6	0.7

Following part
SMILES	Arbovirus anti	Mtb growth	YopH inh	Mtb betalactam	RecA intein inh	others
Cn1ccsc1=NC(=O)c1cccc(OC(F)F)c1	.	.	.	3	-3.5
CC(C)NS(=O)(=O)c1ccc(OCC(=O)N2CCN(Cc3ccc4c(c3)OCO4)CC2)c(Cl)c1	-2	0%	11	.	-0.8
COc1ccc(/C=N/NC(=O)c2c(C)n(C)c3ccc(OC)cc23)c(OC)c1	-2	6%	-32	-2	-3.1
O=C1CCCN1c1ccc(S(=O)(=O)Nc2ccc3c(c2)OCCO3)cc1	-13	0%	9	-4	-2.8
Cn1ncc(Cl)c1C(=O)N/N=C/c1cc2c(cc1[N+](=O)[O-])OCO2	3	-6%	.	5	-3.4
O=C(NCCc1ccccc1)c1ccc(Cl)cc1[N+](=O)[O-]	.	.	.	5	0.2
Cc1ccc(S(=O)(=O)c2cc(O)ccc2O)cc1C	8	-4%	.	7	-5.6
CCOC(=O)c1[nH]c(C)c(/C(O)=C2\C(=O)C(=O)N(CCCN(C)C)C2c2ccncc2)c1C (centres undefined)	8	-2%	-18	.	.
COc1cccc(-c2cc(C(=O)NCCCn3ccnc3)no2)c1	-2	-1%	-22	-5	-2.2
Cc1nn(C)c(=O)c(N)c1-c1cc(-c2ccc(Cl)c(Cl)c2)n[nH]1	.	7%	.	-2	0.6
CCn1c(SCC(=O)Nc2ccc(OC)cc2)nc2nc3c(cc2c1=O)CCCC3	.	5%	.	4	0.4
CCOC(=O)c1cnn(-c2cc(C(C)(C)C)nc3c(-c4ccccc4)c(C)nn23)c1N	1	13%	-13	-4	-1.4
Cc1ccc(C(=O)COC(=O)CCN2C(=O)C3C4CCC(C4)C3C2=O)cc1C (centres undefined)	.	.	.	?	3.1
CSCCNC(=O)Nc1c(-c2c(Cl)cccc2Cl)noc1C	.	-11%	.	1	.
CCOC(=O)C1=C(c2ccccc2)NC(=O)NC1c1ccc(OC)cc1OC (centres undefined)	.	.	.	3	1.3
CC(=O)Nc1ccc(S(=O)(=O)NCC(=O)OCC(=O)NC(=O)C2CCCCC2)cc1	2	-2%	-39	-7	-1.3
CCC(C)N=Cc1c(NCc2ccco2)nc2c(C)cccn2c1=O (centres undefined)	6	6%	-15	12	.
Cc1ccc(S(=O)(=O)NC(C(=O)O)c2ccccc2)cc1 (centres undefined)	0	-1%	.	-7	7.2
CCCCn1c(N)c(N(CCC(C)C)C(=O)c2oc3ccc(OCC)cc3c2C)c(=O)[nH]c1=O	.	.	.	-1	-1.4
O=C(NCC1(c2ccccc2)CCOCC1)c1ccc(Br)o1	3	-3%	-22	2	0.5	Arbovirus anti repeat=3
CCOC(=O)CN(C(=O)c1snc(C(N)=O)c1N)C(C(=O)NC1CCCCC1)c1ccc(F)cc1 (centres undefined)	.	.	.	3	-1.1
CC(C)N(Cc1nccn1C)C(=O)c1cc(COc2ccc3ncccc3c2)on1	8	5%	.	-8	-11
CCC1CSC(Nc2ccc(C(=O)/C=C/c3cccc(C)c3)cc2)=N1 (centres undefined)	3	26%	-20	100	19
CCOC(=O)c1ccccc1NS(=O)(=O)c1c(C)nc2sccn2c1=O	.	.	.	-2	0.2
O=C(Nc1ccc(NC(=O)c2ccco2)nc1)c1cccc(F)c1	.	.	.	-4	-1.4
O=C(COC(=O)c1ccco1)NCc1ccco1	-5	-1%	-50	1	5.0
Cc1cc(C)c(O)c(NC(=S)NC(=O)Cc2ccccc2)c1	.	.	.	98	-4.2
COc1cccc(N(C(=O)c2snc(C(N)=O)c2N)C(C(=O)NCC2CCCO2)c2ccc(C)o2)c1 (centres undefined)	.	.	.	8	-4.5
Cc1ccc(NC(=O)CC2C(=O)N(Cc3ccccc3)C(=S)N2NC(=O)c2cccc(F)c2)c(C)c1 (centres undefined)	12	14%	-24	6	-3.5
COc1ccc2c(c1)nc(SCC(=O)c1ccc(Br)s1)n2C	-11	-10%	10	11	5.9
c1ccc(-c2cn3nc(-c4ccccc4)c(-c4ccccc4)nc3n2)cc1	-15	-6%	-24	6	i
CC(NC(=O)Cn1cc(Br)c([N+](=O)[O-])n1)c1ccccc1 (centres undefined)	.	.	.	5	-1.8
CCCN(Cc1cc2ccc(C)cc2[nH]c1=O)S(=O)(=O)c1ccccc1	-2	-2%	-12	-9	2.2
Cc1ccc(C(=O)NC(=S)Nc2c(C)ccc3nsnc23)cc1	-4	4%	-10	0	20

6 structures out of the list, ordered by length of the SMILES, largest number first.
SMILES	Arbovirus anti	Mtb growth	YopH inh	Mtb betalactam	RecA intein inh	others
Cc1ccc(NC(=O)CC2C(=O)N(Cc3ccccc3)C(=S)N2NC(=O)c2cccc(F)c2)c(C)c1 (centres undefined)	12	14%	-24	6	-3.5
COc1cccc(N(C(=O)c2snc(C(N)=O)c2N)C(C(=O)NCC2CCCO2)c2ccc(C)o2)c1 (centres undefined)	.	.	.	8	-4.5
CCCN(Cc1cc2ccc(C)cc2[nH]c1=O)S(=O)(=O)c1ccccc1	-2	-2%	-12	-9	2.2
CC(NC(=O)Cn1cc(Br)c([N+](=O)[O-])n1)c1ccccc1 (centres undefined)	.	.	.	5	-1.8
COc1ccc2c(c1)nc(SCC(=O)c1ccc(Br)s1)n2C	-11	-10%	10	11	5.9
O=C(COC(=O)c1ccco1)NCc1ccco1	-5	-1%	-50	1	5.0

These rows are one share of the data, so the mix of outcomes need not match the whole.
